Menin-MLL FL inh = displaces fluorescein MLL peptide from human menin | Fluorescence polarization, fluorescein-MLL peptide displacement from menin | FP activity change, % at 61.4 µM | 290,000 tested, under 10 active | AID 1766; inconclusive = falling polarisation curve, or a change in total fluorescence; inactive = total fluorescence flat and polarisation flat or rising; no compound was filed as active; the % refers to the polarisation; negative = inhibition;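 further: % of control where 0% means no effect; inhibitors lower the polarisation; unlabelled MLL peptide was the positive control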
TRPV1 PAM = enhances activation of the human vanilloid receptor TRPV1; TRPV1-expressing cells, Fluo-8 calcium influx, capsaicin EC20 potentiation; host cell line not named in the record; control for the full effect not named in the record; potentiation, % at 8.33 µM; actives 0.02% (n = 320,000); AID 540277; active means potentiation above 80%; inconclusive means 30% to 80%; inactive means below 30%; further: 0% is about no effect
Target sequence (Q8NER1 whole entry, looked up): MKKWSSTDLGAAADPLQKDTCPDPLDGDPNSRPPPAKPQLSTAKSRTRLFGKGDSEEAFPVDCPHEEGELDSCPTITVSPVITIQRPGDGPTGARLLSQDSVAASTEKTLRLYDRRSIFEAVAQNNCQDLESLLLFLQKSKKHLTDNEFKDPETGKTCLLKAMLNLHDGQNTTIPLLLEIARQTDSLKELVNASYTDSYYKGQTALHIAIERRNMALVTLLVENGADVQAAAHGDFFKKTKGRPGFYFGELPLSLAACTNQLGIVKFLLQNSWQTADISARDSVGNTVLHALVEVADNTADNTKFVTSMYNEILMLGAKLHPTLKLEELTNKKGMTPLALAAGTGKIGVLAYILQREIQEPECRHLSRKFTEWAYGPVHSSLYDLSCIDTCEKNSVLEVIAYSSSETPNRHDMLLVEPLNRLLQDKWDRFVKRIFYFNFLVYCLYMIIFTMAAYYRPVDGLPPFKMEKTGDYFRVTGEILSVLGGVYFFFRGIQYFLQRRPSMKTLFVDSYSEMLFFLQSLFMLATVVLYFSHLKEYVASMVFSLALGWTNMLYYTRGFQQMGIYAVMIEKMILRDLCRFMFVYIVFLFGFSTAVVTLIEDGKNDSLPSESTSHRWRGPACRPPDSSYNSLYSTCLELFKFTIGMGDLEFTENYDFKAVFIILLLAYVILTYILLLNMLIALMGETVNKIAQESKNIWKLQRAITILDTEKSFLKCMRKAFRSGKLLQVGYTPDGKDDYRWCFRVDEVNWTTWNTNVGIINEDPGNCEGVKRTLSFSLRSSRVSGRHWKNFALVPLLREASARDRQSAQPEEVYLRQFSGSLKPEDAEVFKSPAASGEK
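Fluo-8 calcium influx in TRPV1-expressing cells, kinetic read (ex 480/em 520 nm). Compound added and read 3 min for agonist activity, followed by capsaicin at EC20 final and 2 min further read for enhancement.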
PINK1 expr mod = PINK1 expression modulation | PINK1 immunofluorescence, high-content cytometry, 24 h | Potency, µM (highest dose often 76.6 µM), inactives show top-dose activation (PINK1 increase), hits mostly activators | actives 0.2% (n = 410,000); active = well fitted activation curve with a large enough effect; inconclusive = small, poorly fitted or top-dose-only effect; inactive = flat fitted curve, though single readings scatter; cell line not stated here;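 further: potency means the concentration at half of the fitted maximal effect; % of control where 0% means no effect; nearly all actives have a fitted effect of over 65% in size; a mitochondrial uncoupler was the plate control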
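PINK1 protein, normally rapidly degraded, was detected by immunofluorescence after 24 hour compound treatment of a stable cell line. Titration data (5 concentrations) came from laser-scanning cytometry, with CCCP-treated wells as controls.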
TRPML1 agonist = human mucolipin-1 channel agonism; Q9GZU1; TRPML1-expressing cells, Ca2+ dye fluorescence, FDSS; host cell line not named in the record; reference of the full effect not given here; activation, % (no concentration beside the values); actives 0.12% (n = 410,000); in the data active = activation above about 50%; inconclusive = about 30% to 50%; inactive = below about 30%; further: 0% is about no effect; the text of the record puts the active cut at 80%
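Tetracycline-induced TRPML1-DL cells are seeded and incubated overnight before loading with a no-wash Ca2+ dye and quencher. Agonist activity is taken from the 110 s fluorescence read following compound pin-transfer on an FDSS, before EC80 54-4 challenge.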
ClpP mod = qHTS Assay for Activators of ClpP; ATP-dependent Clp protease proteolytic subunit (Bacillus subtilis (strain 168)), P80244; purified B. subtilis ClpP, FRET peptide cleavage, 20 min; Potency, µM (doses to about 57.5 µM), for inactives: at the highest dose activity change, negative = active; actives 1.9% (n = 340,000); AID 651965, 2013; active = well fitted falling curve with a large enough effect; inconclusive = small, poorly fitted or top-dose-only effect; inactive = no such curve, though single readings can be large or run the other way; further: potency means the concentration at half of the fitted maximal effect; the source files actives as falling curves though it sought activators and does not explain the sign; nearly all actives have a fitted effect of over 65% in size; many hits overshoot -100%
Target sequence (P80244 whole entry, looked up): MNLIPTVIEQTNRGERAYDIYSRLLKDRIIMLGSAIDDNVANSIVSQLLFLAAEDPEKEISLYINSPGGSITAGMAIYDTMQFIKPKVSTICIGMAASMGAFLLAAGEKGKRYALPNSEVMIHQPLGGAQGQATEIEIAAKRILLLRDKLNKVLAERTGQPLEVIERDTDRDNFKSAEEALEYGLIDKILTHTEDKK
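Buffer: 100 mM Tris/HCl pH8, 100 mM KCl, 0.05% low protease BSA, 2.5% glycerol, 0.01% Tween-20. ClpP 10 microg/mL final; 20 min RT; delta FRET normalized to ADEP and DMSO controls.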
Sfp inh = Sfp phosphopantetheinyl transferase inhibition | Q9F4F7 | actives 3.5% (n = 310,000) | Potency, µM, inactives show max response, negative = inhibition, usual class: inhibitors | AID 1490 | Biochemical Sfp PPTase activity, qHTS; active means well fitted inhibition curve with a large enough effect; inconclusive means small, poorly fitted or top-dose-only effect, or another doubt; inactive means no such curve, though single readings can be large or run the other way;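 further: the enzyme is Sfp with the accession as filed and its product quenches rhodamine fluorescence; potency means the concentration at half of the fitted maximal effect; 0% = enzyme reaction without inhibitor and -100% = no enzyme wells; top concentration of the series not given in the record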
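With Hepes-Na pH 7.6 buffer containing 10 mM MgCl2, Sfp (15 nM) modified BHQ-2-YbbR (12.5 uM) using rhodamine-CoA (5 uM). Two reads 30 minutes apart at 525/598 nm yielded each well's rate.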
TRPML1 inh = human mucolipin-1 channel inhibition; Q9GZU1; TRPML1-inducible cells, Ca2+ dye fluorescence, FDSS; stronger effect = lower value; inhibition of EC80 agonist-evoked calcium signal; activity change, negative = inhibition, % (test concentration not listed); actives 0.02% (n = 390,000); AID 624415; in the data active means activity change below about -50%; inconclusive means about -30% to -50%; inactive means above about -30%;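 further: stimulus is agonist 54-4 at its EC80 concentration; on the % scale 0 is the no-effect control and ±100 the full control effect; compound concentration not given in the record; the text of the record puts the active cut at -80%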
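TRPML1-DL cells, Tet-induced overnight (~16 h, 37 °C) at 1,500 cells/well, were loaded with Ca8 no-wash dye plus quencher for 45-90 min at room temperature. Compounds were pinned during FDSS kinetic reading; agonist 54-4 at EC80 (4 uM final) then added.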
An asterisk follows results filed as active; ? = inconclusive; . = not tested or not shown; & = joins results of further samples; [ ] = remark or other dose.

SMILES | Menin-MLL FL inh | TRPV1 PAM | PINK1 expr mod | TRPML1 agonist | ClpP mod | Sfp inh | TRPML1 inh
CCOC(=O)c1sc(=S)n(CC)c1NC(=O)c1ccccc1 | 12 | 7 | -0.5% | -0.4 | . | 23% | 7
COc1cccc(NC(=O)COC(=O)CCCc2c[nH]c3ccccc23)c1 | -0.5 | 13 | -3.4%[38.3 µM] | 0.5 | -3.9% | 15% | -5
CC(C)c1ccc(OCCCCN2CCCCC2)cc1 | 1.0 | 9 | -0.6% | 1.8 | . | -29% | 1
CCC1S/C(=C(\C#N)C(=O)NCc2ccco2)N(c2ccc(Br)cc2)C1=O (configuration not stated) | 8.8 | 6 | -1.9% | 1.5 | -13% | -3% | 45
Cc1ccc(C)n1-c1c(C(=O)NCCCN2CCN(c3ccc(F)cc3)CC2)sc2ncccc12 | . | . | 0.6% | -0.2 | -10% | . | -12
O=C1C2C3C=CC(C3)C2C(=O)N1CCN1CCN(S(=O)(=O)c2ccc3ccccc3c2)CC1 (configuration not stated) | 3.1 | 6 | -0.8% | -0.7 | -0.1% | -6% | -21
CCCCn1c(SC(C)C(N)=O)nc2cc(C(=O)OC)ccc2c1=O (configuration not stated) | 3.4 | -6 | 4.0% | -0.9 | -14% | 7% | -7
COCCNC(=O)C(=O)NNC(=O)c1ccccc1OC | 3.8 | 2 | -1.4% | 0.4 | . | 79µM* | 4
CSc1[nH]c(=O)c(C(=O)O)cc1C#N | -1.6 | 3 | -1.3% | 0.5 | 40µM* | ? | -6
O=C(c1noc2c1CSc1ccccc1-2)N1CCN(c2ccc(Cl)cc2)CC1 | -0.9 | -4 | 1.7% | -0.3 | 0.3% | ? | 24
CCCn1ncc(CN2CCN(Cc3ccsc3)C(CCO)C2)c1C (configuration not stated) | -4.3 | 4 | -0.9% | 0.6 | . | 16% | 34
CSCC[C@H](NC(=O)OC(C)(C)C)C(=O)N1CCC(C(=O)NCC(=O)Nc2ccc(C)cc2)CC1 | -2.2 | -3 | -2.0% | 1.1 | 2.6% | 24% | -12
O=c1[nH]c(=O)n(C2CCCCC2)c(O)c1C1=Nc2ccccc2SC(c2ccc(Cl)cc2)C1 (configuration not stated) | . | . | 2.7% | 1.4 | -6.7% | . | -14
Cn1c(=O)c(C(=O)COc2ccc(C#N)cc2)c(N)n(Cc2ccccc2)c1=O | 5.1 | 2 | 12% | 17 | . | 9% | 4
Cc1nn(-c2ccc(F)cc2)c(-n2cccc2)c1C(=O)N1CCN(c2ccc(F)cc2)CC1 | . | . | -0.8% | 1.1 | -2.2% | . | -18
COc1cccc(NC(=O)c2sc3nc(C)c(C(=O)Nc4ccc(C)cc4C)c(-c4ccccc4Cl)c3c2N)c1 | . | . | 0.5% | 0.2 | -27% | . | -7
Cc1ccc(N2CCN(C(=O)N3CCCC3)CC2)cc1C | -3.4 | -22 | . | 2.1 | -6.0% | 13% | -17
C=CCSc1nc(=O)n2cccc(C)c2n1 | 1.4 | 11 | 2.7%[38.3 µM] | -0.1 | -7.9% | 4% | -3
FC(F)(F)c1nc(Sc2ncccc2C(F)(F)F)n[nH]1 | -2.1 | . | 2.3% | -0.7 | -1.8% | 8% | -5
c1ccc2c(c1)CCCC2C1=NCCN1 (configuration not stated) | 4.7&3.6&4.1 | -9 | -0.4% | -0.4 | 0.8% | 12%&9% | 22
COc1cccc(NC=C2C(=O)OC(C)(C)OC2=O)c1 | -0.1 | 10 | 0.2% | -0.2 | -1.0% | 10% | -13
CCOCc1nnc(NC(=O)c2cccc(OC)c2)s1 | -5.4 | 2 | 0.1% | 0.7 | -3.0% | 11% | -19
CCOC(=O)N/N=C/c1ccc(OCCSc2ccc(Cl)cc2)c(OC)c1 | 2.3 | 28 | ? | 2.2 | ? | -23% | -1
Cc1ccccc1-c1cnc(C(O)c2ccc(-c3ccccc3)cc2)[nH]1 (configuration not stated) | . | . | 26% | 0.6 | ? | . | .
CC(C)C[C@@H](COCc1ccc(Cl)cc1)N1CCN(C(=O)c2ccc(Cl)cc2Cl)CCC1=O | . | . | ? | 10 | -4.0% | . | .

New compounds follow
SMILES | Menin-MLL FL inh | TRPV1 PAM | PINK1 expr mod | TRPML1 agonist | ClpP mod | Sfp inh | TRPML1 inh
Cc1cccc(NS(=O)(=O)c2ccc3[nH]c4c(c3c2)CCCCCC4)c1 | . | . | 19% | 0.0 | -28% | . | 20
SCc1nc2ccccc2[nH]1 | . | . | -0.8% | -0.3 | -14% | . | .
O=C(c1cc(COc2ccc(F)cc2Cl)on1)N1CCCCCCC1 | 2.6 | 7 | 2.9% | 1.0 | -1.1% | 0% | 15
Cc1ccc(CCNC(=O)CCCn2c(=O)c3ccccc3n(Cc3ccccc3C)c2=O)cc1 | . | . | 3.9% | 1.0 | -15% | . | 3
CS(=O)(=O)N1CCN(c2ccccc2NC(=O)c2cc(Br)ccc2Cl)CC1 | 0.0 | 3 | 2.3% | -0.7 | . | 20% | 9
c1ccc2c(c1)Sc1cnccc1N2CC1CO1 (configuration not stated) | . | . | -0.8% | -0.6 | -0.4% | . | -12
O=C(Cn1c(=O)oc2cc(S(=O)(=O)N3CCCCC3)ccc21)NCc1ccc(Cl)cc1 | . | . | 1.6% | -0.4 | -0.9% | . | -3
CSc1ccccc1NC(=O)C(C)N1C(=O)c2ccccc2S1(=O)=O (configuration not stated) | . | 3 | 1.2% | 0.7 | -1.5% | . | 1
COc1cc(NC(=O)c2ccc(Cl)cc2)c(OC)cc1NC(=O)CN1CCCCC1 | 0.3 | 8 | 0.6% | 27 | . | 8% | 2
Cc1ccc(S(=O)(=O)/N=C(\c2ccccc2)N(C)S(=O)(=O)c2ccc(C)cc2)cc1 | 6.6 | 0 | -0.1% | 0.1 | 0.9% | 3% | -6
COc1ccc(S(=O)(=O)N2CCCCCC2)cc1NC(=O)CC1OC(=O)c2ccccc21 (configuration not stated) | . | -10 | 16% | 0.0 | -10% | . | -7
O=C(CN1N=C(c2ccc(Cl)cc2)CCC1=O)NCc1cccs1 | -2.5 | -28 | . | . | . | 6% | .
CC1(C)OC(=O)C(=CNc2cccc(C(=O)O)c2)C(=O)O1 | -1.7 | 6 | -0.5% | -0.7 | 15% | 28% | -7
CCc1cc2c(cc3c(=O)n(CC(=O)NC4CCC(C)CC4)ncn32)s1 (configuration not stated) | . | . | 0.2% | -0.3 | -6.3% | . | -4
CCOc1ccccc1NC(=O)c1nc(S(=O)(=O)Cc2ccccc2F)ncc1Cl | . | . | 0.2% | 0.4 | ? | . | .
CN1CCN(C(=O)c2ccc(CSc3nc4ccncc4n3Cc3ccc(F)cc3)cc2)CC1 | -3.7 | 4 | 0.9% | -0.3 | -18% | -20% | -7
Cc1c(Cc2ccccc2)c(=O)oc2cc(OCC(=O)N3CCC(C(=O)O)CC3)ccc12 | -6.7 | 4 | -0.3% | . | 4.7% | 9% | .
CN(CC(=O)Nc1c(Cl)cccc1Cl)C(=O)CNC(=O)c1sc2ccccc2c1Cl | . | . | 0.0% | -0.7 | 0.7% | . | 1
CC(C)(C)c1ccc(C(=O)N2CCC2(C)C(=O)NCc2cccs2)cc1 (configuration not stated) | . | . | 1.7% | -0.8 | 0.3% | . | .
O=C(O)COCC(=O)N1CCN(c2cc(C(F)(F)F)nc3ccccc23)CC1 | -3.5 | -20 | 1.1% | . | 0.7% | 6% | .
COC(=O)c1cc2sc(Cl)cc2n1CC(=O)N1CCCc2ccccc21 | 18 | 17 | . | 0.3 | -9.2% | 4% | 0
CCOc1cc(/C=N/n2cnnc2)ccc1OS(=O)(=O)c1ccc(C)cc1 | 2.0 | 12 | 3.3% | 2.5 | . | -11% | -6
COc1ccccc1C=C1SC(=S)NC1=O | . | . | -0.1% | 1.7 | -3.4% | . | 3
CC(C)c1ccc(NC(=O)c2cnn(-c3ccccc3)c2NC(=O)c2ccco2)cc1 | 0.2 | ? | 6.3% | 1.4 | 5.5% | 20% | -1
Cc1ccc2c(=O)cc(C(=O)Nc3ccc(S(=O)(=O)Nc4onc(C)c4C)cc3)oc2c1C | . | . | 3.5% | 0.5 | 0.9% | . | 9

Whole records, quoted from the list:
Record of CCOc1ccccc1NC(=O)c1nc(S(=O)(=O)Cc2ccccc2F)ncc1Cl : Menin-MLL FL inh = .; TRPV1 PAM = .; PINK1 expr mod = 0.2%; TRPML1 agonist = 0.4; ClpP mod = ?; Sfp inh = .; TRPML1 inh = .
Record of FC(F)(F)c1nc(Sc2ncccc2C(F)(F)F)n[nH]1 : Menin-MLL FL inh = -2.1; TRPV1 PAM = .; PINK1 expr mod = 2.3%; TRPML1 agonist = -0.7; ClpP mod = -1.8%; Sfp inh = 8%; TRPML1 inh = -5

Next section:
SMILES | Menin-MLL FL inh | TRPV1 PAM | PINK1 expr mod | TRPML1 agonist | ClpP mod | Sfp inh | TRPML1 inh
O=C(NCCc1nc2ccccc2[nH]1)c1ccc(Cl)c([N+](=O)[O-])c1 | -0.5 | -10 | -0.3% | 1.4 | 3.8% | 1% | 17
CNc1c2cccc(C)c2nc2c(C(=O)NCCN(C)C)cccc12 | . | . | -1.3% | 16 | 0.9% | . | 4
Nc1nc(C2CCCCC2)cs1 | -1.2 | -7 | 5.2%[38.3 µM] | 0.1 | -0.1% | 5% | -1
CCN(c1ccccc1)S(=O)(=O)c1ccc(Cl)c(NC(=O)CN(C)Cc2cccc(F)c2)c1 | . | . | 1.7% | 0.8 | 3.7% | . | 0
COc1ccc(S(=O)(=O)NCc2ccc3c(c2)OCO3)cc1C(=O)O | 0.4 | 5 | -1.1% | -0.3 | 1.1% | 19% | 25
CC(C)(C)OC(=O)NCCCC[C@H](NC(=O)c1nc[nH]c1C(=O)N1CCc2ccccc2C1)C(=O)OC(C)(C)C | 1.3 | -9 | 1.0% | 1.5 | 0.3% | 9% | 8
CCc1ccccc1N=C1SCC(=O)N1C | -1.6 | -11 | 0.3% | 0.3 | -0.2% | 13% | 12
C[C@H]1CN([C@@H](C)CO)C(=O)CCCn2nncc2CO[C@H]1CN(C)S(=O)(=O)c1ccc(-n2cccn2)cc1 | . | . | 2.2% | -0.5 | -1.8% | . | 1
Cc1ccc(-n2cc(-c3ccc([N+](=O)[O-])cc3)[nH]c2=S)c(C)c1 | 9.4 | 5 | -0.4% | 0.2 | 0.6% | -10% | -4
Cc1noc(C)c1C(=O)NC(C)c1ccc(Cl)cc1Cl (configuration not stated) | -0.2 | -6 | -1.2% | 1.0 | . | 22% | ?

Screening results as filed in PubChem.
